GIV Gai3 FP: inhibitors of GIV GBA-motif binding to rat Galpha-i3. percent of control (FP), % (test concentration not listed). P08753. 210,000 tested, 0.42% active. AID 1224905. Galpha-i3/FITC-GIV peptide fluorescence polarization, 90 min; stronger effect = lower value; scaled: aluminum fluoride 0%, vehicle 100%;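 active = replicate mean at 85% of control or lower, very high polarization wells dropped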;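 also: wells of about 15 µL received 100 nL stock; the first replicate is given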
Target sequence (P08753 whole entry, looked up): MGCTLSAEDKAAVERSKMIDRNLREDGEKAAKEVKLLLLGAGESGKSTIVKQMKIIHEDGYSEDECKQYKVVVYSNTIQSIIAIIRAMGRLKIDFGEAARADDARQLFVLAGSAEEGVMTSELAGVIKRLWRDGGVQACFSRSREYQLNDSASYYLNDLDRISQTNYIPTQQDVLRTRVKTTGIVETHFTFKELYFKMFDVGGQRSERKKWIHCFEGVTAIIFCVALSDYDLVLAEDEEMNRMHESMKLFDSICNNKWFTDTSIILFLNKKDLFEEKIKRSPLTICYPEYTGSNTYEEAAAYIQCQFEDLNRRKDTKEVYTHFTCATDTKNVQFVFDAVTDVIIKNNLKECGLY
Sa growth inh: inhibitors of Staphylococcus aureus growth at 42 °C | S. aureus RN4220 growth, OD600, 20 h; stronger effect = lower value | relative growth, % (no concentration beside the values) | 170,000 tested, 0.53% active;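 active = growth at 42 °C up to 50% and 20 or more points under that at 30 °C, or under 10% at both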;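 also: 300 nL library stock went into each well; scaled to the means of positive and negative controls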
HCMV UL50-53 inh: inhibitors of HCMV UL50-UL53 nuclear egress complex interaction. 190,000 tested, 0.15% active. HTRF UL50-UL53 interaction, normalized percent inhibition. inhibition, % (test concentration not listed);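 active = both replicates at 50% or more, plus weaker picks with an unusually low signal ratio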;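 also: stock transfer was 100 nL into about 20 µL; 0% = negative control wells and 100% = wells with untagged competitor protein; inactives centre near -12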
Sa growth inh second temp: recorded beside Sa growth inh, whose call it bears; relative growth, %; measured here: growth at 30 °C;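 optical density after 20 h as mean of two plates; 100% = untreated growth and lower means inhibition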
* = called active by the depositor; · = no result given; & = joins results of further samples.

smiles	HCMV UL50-53 inh	Sa growth inh	Sa growth inh second temp	GIV Gai3 FP
O=S(=O)(c1cccc2nsnc12)N(CCOc1ccccc1)C1CCCCC1	-4	108	89	102
O=C(Nc1ccc2c(c1)OCCO2)c1ccc(CSc2ncn[nH]2)cc1	-22	76	79	·
COc1ccc(C=Nc2ccc3c(c2)nc(C)n3C)cc1	-15	97	91	95
CCOC(=O)Cn1c(=O)c2c(nc3n2CC(C)CN3c2ccc(Br)cc2)n(C)c1=O (stereo not given)	-18	·	·	105
CN(C)S(=O)(=O)c1ccc(N2CCC(C(=O)O)CC2)cc1	-8	92	97	99
COc1ccccc1CNC(=O)CCn1c(=O)c2ccccc2n(CC(=O)Nc2ccc(C)cc2Cl)c1=O	-2	106	100	106
O=S(=O)(Nc1ccc(N2CCCCC2)cc1)c1ccccc1C(F)(F)F	-11	99	98	·
COc1ccc(-c2nnc(SCC(=O)Nc3cccc(C)c3)s2)cc1	·	91	100	105
CCc1ccc(NC(=O)Cn2ccn(-c3ccc(OC)cc3)c(=O)c2=O)cc1	-4	89	84	95
C=CCn1c(=S)[nH]c2nc(N(CC)CC)sc2c1=O	-18	·	·	101
COc1cccc(CNS(=O)(=O)c2ccc3c(c2)OCC(C(=O)N2CCCCC2)O3)c1 (stereo not given)	2	97	92	95
CCc1ccc(CN(Cc2cccnc2)C(=O)c2cnc(C)cn2)cc1	-18	83	91	·
NC(=O)c1nc(-c2cccnc2)nc2c1[nH]c(=O)n2-c1ccccc1	-3&8	104	86	111&104
CCN(CC)Cc1c(C(C)(C)C)oc(C)c1C(=O)O	-25	103	86	107
CSc1ncccc1C(=O)OCC(=O)N1CCCC1	-2	93	85	·
CCCCN(CC)CCNC(=O)c1nn(C)c2c1CS(=O)(=O)c1ccccc1-2	-9	118	99	104
NC(=O)C1(N2CCCCC2)CCN(c2ccc(NC(=O)C3CCCC3)c(C(=O)O)c2)CC1	-25	·	·	100
COc1cc(C2Nc3ccccc3NC3=C2C(=O)CC(c2ccc4c(c2)OCO4)C3)ccc1OC(C)=O (stereo not given)	-10	·	·	109
CN(C)C(CNC(=O)c1ccccc1Cl)c1ccccc1 (stereo not given)	0	85	94	·
CC1(C)CC(=O)C2=C(C1)OC1=C(C(=O)CC(C)(C)C1)C2c1ccc(-c2cccc(Cl)c2)o1	-16	·	·	101
COc1ccc(Cl)cc1NC(=O)CCCn1c(C)c2cnn(-c3ccccc3)c(=O)c2c1C	-2	108	80	103
O=C(CCCc1nnc2c(=O)n(-c3cccc(F)c3)ccn12)N1CCN(c2ccccn2)CC1	-22	·	·	101
O=c1c2ccccc2nnn1CSc1ncnc2ccccc12	-16	71	85	·
CCCN(CC1CC1)S(=O)(=O)c1ccc(S(N)(=O)=O)cc1	3	104	90	110
CCc1nn(C(C)C(=O)NCCc2ccccc2)c(=O)c2cc3occc3n12 (stereo not given)	-2	85	86	101
COc1ccc2c(CC(=O)OC(C)C(=O)NCc3ccc4c(c3)OCO4)coc2c1 (stereo not given)	-25	77	87	·
CCn1nc(C)c(CCN(C)C(=O)Nc2cccc(Cl)c2C)c1C	·	108	88	99
Cc1nc(SCC(=O)NCc2cccs2)n(C2CCCCC2)c1C	11	107	94	·
Cc1ccc(NC(=O)Cn2c(=O)n(CCCCC(=O)NCc3ccc4c(c3)OCO4)c(=O)c3ccccc32)cc1	3	112	89	109
CSc1ncc(C(=O)N2CCN(c3ccc(F)cc3)CC2)c(C)n1	·	119	93	98
O=S1(=O)N=CNc2ccc(S(=O)(=O)N3CCCCC3)cc21	-10	·	·	104
O=C1NC(=O)C2C3c4ccccc4C(c4ccccc43)C12 (stereo not given)	6	87	112	86
CC(C)Cn1c(O)c(N=NC(=O)c2cccnc2)c2ccccc21	-101	110	92	·
CC1CCCCN1C(=O)CSc1nc2cc3c(cc2c(=O)n1Cc1ccco1)OCO3 (stereo not given)	-1	93	91	102
Brc1ccc2cc(Oc3cnccn3)ccc2c1	-27	113	99	·
O=c1oc2ccccc2cc1-c1cn2cc(Cc3ccc(Cl)cc3)sc2n1	-30	92	85	103
Cc1ccccc1NC(=O)Cn1nnc(C(=O)NCc2cccs2)c1N	-12	111	90	104
Cc1nnc(Cl)c2ccccc12	-23	97	91	104
CCOc1ccc2c(CC)cc(=O)oc2c1C	-10	112	91	101
COc1ccc(C2C3=C(CCCC3=O)NC3=C2C(=O)c2ccccc23)c(OC)c1OC (stereo not given)	-76	111	79	105

3 compounds out of the list, ordered by count of non-hydrogen atoms, lowest first:
smiles	HCMV UL50-53 inh	Sa growth inh	Sa growth inh second temp	GIV Gai3 FP
CCCN(CC1CC1)S(=O)(=O)c1ccc(S(N)(=O)=O)cc1	3	104	90	110
O=S(=O)(c1cccc2nsnc12)N(CCOc1ccccc1)C1CCCCC1	-4	108	89	102
COc1ccccc1CNC(=O)CCn1c(=O)c2ccccc2n(CC(=O)Nc2ccc(C)cc2Cl)c1=O	-2	106	100	106

The results go on.
smiles	HCMV UL50-53 inh	Sa growth inh	Sa growth inh second temp	GIV Gai3 FP
c1ccc(N2CCN(c3nnc(-n4cccc4CN4CCN(c5ccccn5)CC4)s3)CC2)cc1	5	·	·	101
CCOC(=O)C1CCN(C(=O)c2cccc3c2C(=O)N(C2CCCCC2)C3)CC1	-1&-16	106	92	96&97
Cc1cc2n(n1)CCC(=O)N2CC(=O)NC1CCCCC1	-17	·	·	104
COc1ccc(-n2cnc3cc(C(=O)NC4CCCC4)ccc32)cc1	·	94	82	102
CCCCNC(=O)CSc1nc2cc3c(cc2c(=O)n1CCCCCC(=O)NCc1ccc(OC)cc1)OCO3	·	92	88	104
Cc1nn(-c2ccccc2)nc1C(=O)Nc1ccc2[nH]ccc2c1	-18	93	88	100
Cc1ccccc1C(=O)N1CCc2ccccc2C1	-20	90	91	104
CCC(C)NC(=O)C1c2ccccc2C(=O)N1Cc1ccccc1 (stereo not given)	-29	83	90	104
COc1ccc(Br)cc1-c1nc(CSc2nc3ccccc3c(=O)n2C)c(C)o1	-31	·	·	107
CC1(C)C(=O)N(CC(=O)N2CCc3ccccc3C2)c2ccc(S(=O)(=O)N3CCCCC3)cc21	-20	·	·	104
CC(C)(C)S(=O)(=O)/C(C#N)=C/Nc1ccc(Cl)cn1	-16	94	87	103
COc1ccc(-c2nn3c(NCCN4CCOCC4)cc(C)nc3c2C)cc1OC	-30	·	·	104
O=C(CN1C(=O)c2ccccc2S1(=O)=O)N1CCOCC1	·	105	89	98
CN1C(=O)/C(=C2/Sc3ccccc3N2C)SC1=NC1CCCCC1	-16	119	91	106
CC(=O)n1nc(-c2ccc(Cl)cc2)nc1NCc1ccco1	-13	95	84	97
O=C(O)COc1cccc(F)c1	-22	117	85	·
COC(=O)CC1=CC(=O)N(CC(=O)Nc2ccc3c(c2)CCC3)c2ccccc2N1	-23	·	·	105
Cc1cc(C)n(C(=O)CNC(=O)Cc2ccccc2)n1	-23	102	92	100
O=C(NC(=S)Nc1ccc(-c2nc3ccccc3o2)cc1)c1ccccc1	-2	111	96	103
CCc1nc2ccc(C(=O)NC(C)c3ccccc3)cc2nc1CC (stereo not given)	0	90	83	106

Copied from above, four compounds:
smiles	HCMV UL50-53 inh	Sa growth inh	Sa growth inh second temp	GIV Gai3 FP
c1ccc(N2CCN(c3nnc(-n4cccc4CN4CCN(c5ccccn5)CC4)s3)CC2)cc1	5	·	·	101
CCOC(=O)C1CCN(C(=O)c2cccc3c2C(=O)N(C2CCCCC2)C3)CC1	-1&-16	106	92	96&97
Cc1cc2n(n1)CCC(=O)N2CC(=O)NC1CCCCC1	-17	·	·	104
COc1ccc(-n2cnc3cc(C(=O)NC4CCCC4)ccc32)cc1	·	94	82	102

Later entries
smiles	HCMV UL50-53 inh	Sa growth inh	Sa growth inh second temp	GIV Gai3 FP
COCC(C)n1c(C)cc(C(=O)Cn2ncc(Cl)c(Cl)c2=O)c1C (stereo not given)	-64	115	94	·
O=C(NCCC1=CCCCC1)c1c(-c2ccc(F)cc2)nc2n1CCS2(=O)=O	-10	·	·	101
COc1cc(-c2ccc(C)cc2)nc2ccc(C(=O)N3CCN(c4ccccn4)CC3)cc12	1	·	·	97
O=C(COC(=O)CC1CCCC1)Nc1cc(C(F)(F)F)ccc1Cl	-36	105	93	·
CC(=O)NC(=O)c1cc2cc(Br)ccc2oc1=Nc1ccc(F)cc1	-7	·	·	99
Cc1c(C(=O)Nc2ccccc2)sc2ncn(CC(=O)N3CCC(C)CC3)c(=O)c12	-8	97	83	·
COc1cc(OC)c(NC(=O)c2ccc3nc(N4CCOCC4)sc3c2)cc1Cl	·	102	95	105
O=C(O)CN1CC(=O)Oc2ccc(Cl)cc21	-24	·	·	100
Cc1cc2c(cc3c(=O)n(CC(=O)NCCN4CCOCC4)ncn32)s1	·	93	90	103
CN(c1ccccc1)c1nc(OC(C(F)(F)F)C(F)(F)F)nc(OC(C(F)(F)F)C(F)(F)F)n1	-17	87	64	109
CC1(C)CC(=NNC(=O)c2n[nH]c3c2CCC3)CC(C)(C)N1	-6	110	95	104
COc1ccccc1N1CCN(CCCCNC(=O)c2ccc(Cl)cc2)CC1	-35	103	94	101
Cc1c(CNCCc2c[nH]c3ccccc23)c(C(=O)O)c(C)n1Cc1ccc(F)cc1Cl	·	89	88	102
Cc1ccccc1N1CCN(C(=O)c2ccccc2O)CC1	-4	92	78	103
CC(=O)N1N=C(c2c(-c3ccccc3)c3cc(C)ccc3[nH]c2=O)CC1c1ccco1 (stereo not given)	-26	59	56	·
CCCC(=O)Nc1ccc(Cl)c(NC(=O)c2cccnc2Cl)c1	3	75	106	103
CNCCCNc1ccnc2cc(Cl)ccc12	-30	100	96	102
CCc1cc(C(=O)N2CCCc3ccccc32)no1	-1	·	·	107
COc1cccc(NC(=O)C2CCC(CNS(=O)(=O)c3csc(C(N)=O)c3)CC2)c1 (stereo not given)	·	106	99	107
O=C(OCc1nc2ccc(Cl)cc2n1CCO)c1ccccc1	-35	89	80	·
O=C1C(=O)N(C2CCN(S(=O)(=O)c3cccc4nsnc34)CC2)CCN1Cc1ccccc1	-64	·	·	97
O=C(C(Sc1nnnn1C1CCCC1)c1ccccc1)N1CCOCC1 (stereo not given)	-26	87	86	·
Cc1ccccc1Nc1sc(C(=O)c2ccc3c(c2)OCO3)c(N)c1S(=O)(=O)c1ccccc1	·	103	94	101
O=C(CN1C(=O)/C(=C/c2ccccc2)Sc2ccccc21)N1CCCC1	·	109	98	108
Cc1ccc(N(C(=O)Cn2nnc(-c3ccc(C)o3)n2)C(C(=O)NCC2CCCO2)c2ccc(F)cc2)cc1 (stereo not given)	-22	90	85	105
CN(C)CCN(C)Cc1ccccc1C(F)(F)F	-14	101	105	100
CC(C)Cc1cc(-c2nn3c(C4CCCCC4)nnc3s2)n[nH]1	-12	·	·	104
CC(C)c1ccc(NC(=O)CN2C(=O)C3CCCCN3c3ccc(C(=O)N4CCOCC4)cc32)cc1 (stereo not given)	-28	·	·	104
CC(C)c1ccccc1NC(=O)CN1C(=O)c2ccccc2C1=O	-4	84	89	·
NS(=O)(=O)c1ccc(CCNC(=O)CC2=NS(=O)(=O)c3ccccc3N2)cc1	-18&-8	99	86	103&109
OC(c1ccccc1)c1ccc2c(c1)c1c3n2CCNC3CCC1 (stereo not given)	·	87	81	97
Cc1cccc(C)c1NC(=O)Cn1nc(C)c2sc3ccccc3c2c1=O	6	90	90	99
CCc1ccc(NC(=O)N(CC)c2nc(-c3ccc(Br)cc3)cs2)cc1	-22	·	·	106
Cn1c(-c2nnc(SCC(=O)NC(C)(C)C)o2)cc2ccccc21	-12	·	·	97
Nc1cccc(-c2cn3ccsc3n2)c1	·	94	91	103&105
O=C(CN1C(=O)c2cccc3cccc1c23)Nc1ccccc1	-13	97	81	106
COc1cc(CN2CCC(N)CC2)cc(OC)c1OC	1	114	96	105
COc1ccc(C(CC(=O)NCc2ccccc2)N2Cc3ccccc3C2=O)cc1 (stereo not given)	·	103	94	102
COC(=O)c1oc2cc(C)ccc2c1C	-26	100	92	105
CC(NC(=O)Cn1ncc2c3ccccc3n(Cc3ccc(F)cc3)c2c1=O)c1ccccc1 (stereo not given)	-15	98	85	105

Screens as filed in PubChem.
